# Source: PubChem
# Menin MLL FP FL – menin-MLL binding inhibition, fluorescein peptide | 290,000 tested, under 10 active | FP activity change, % at 61.4 µM | Fluorescence polarization, fluorescein-MLL peptide displacement from menin; inconclusive = falling polarisation curve, or a change in total fluorescence; inactive = total fluorescence flat and polarisation flat or rising; no compound was filed as active; the % refers to the polarisation; negative = inhibition;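 further: % of control where 0% means no effect; inhibitors lower the polarisation; unlabelled MLL peptide was the positive control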
# TRPML1 ag – agonists of human TRPML1 channel; Q9GZU1; TRPML1-expressing cells, Ca2+ dye fluorescence, FDSS; host cell line not named in the record; reference of the full effect not given here; activation, % (test concentration not listed); 410,000 compounds, 0.12% hits; AID 624414; in the data active = activation above about 50%; inconclusive = about 30% to 50%; inactive = below about 30%; further: 0% is about no effect; the text of the record puts the active cut at 80%
# Target sequence (Q9GZU1 whole entry, looked up): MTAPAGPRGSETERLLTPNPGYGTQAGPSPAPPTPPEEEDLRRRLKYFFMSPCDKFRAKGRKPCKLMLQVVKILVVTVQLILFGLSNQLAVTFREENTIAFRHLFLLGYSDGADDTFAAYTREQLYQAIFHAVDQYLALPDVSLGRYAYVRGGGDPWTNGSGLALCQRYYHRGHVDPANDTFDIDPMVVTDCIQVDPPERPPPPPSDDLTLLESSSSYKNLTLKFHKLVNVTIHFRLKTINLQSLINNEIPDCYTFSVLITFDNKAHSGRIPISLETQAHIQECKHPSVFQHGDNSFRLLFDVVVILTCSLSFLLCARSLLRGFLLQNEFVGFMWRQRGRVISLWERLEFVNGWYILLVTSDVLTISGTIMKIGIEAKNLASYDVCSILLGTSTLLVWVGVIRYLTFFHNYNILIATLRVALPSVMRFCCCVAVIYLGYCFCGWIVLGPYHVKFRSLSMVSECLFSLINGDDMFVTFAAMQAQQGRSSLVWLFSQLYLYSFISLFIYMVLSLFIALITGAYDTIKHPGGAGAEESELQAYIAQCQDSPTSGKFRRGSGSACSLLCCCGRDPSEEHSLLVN
#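 Tetracycline-induced TRPML1-DL cells are seeded and incubated overnight before loading with a no-wash Ca2+ dye and quencher. Agonist activity is taken from the 110 s fluorescence read following compound pin-transfer on an FDSS, before EC80 54-4 challenge.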
# gsp agonist – agonists of gsp mutant (McCune-Albright syndrome). AID 624287. gsp mutant cells, cAMP HTRF, 30 min; control for the full effect not named in the record. 340,000 compounds, 0.13% hits. Potency, µM (top dose mostly 76.9 µM), for the others: at the highest dose activation (cAMP increase), actives largely listed as activators; active = well fitted activation curve with a large enough effect; inconclusive = small, poorly fitted or top-dose-only effect, or another doubt; inactive = no such curve, though single readings can be large or run the other way; cell line not stated here;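 further: phosphodiesterase inhibitor Ro 20-1724 added with compounds to block cAMP breakdown; potency means the concentration at half of the fitted maximal effect; nearly all actives have a fitted effect of over 60% in size; about a fifth of the inactives were tested at one dose only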
#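 Cells stably selected in G418 were plated at 2000/well, grown 16-24 hr, then given compounds in DMSO with the PDE inhibitor […] (300 uM solution added) for 30 min at 37C; cAMP was read by HTRF.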
# ClpP mod – qHTS Assay for Activators of ClpP; ATP-dependent Clp protease proteolytic subunit (Bacillus subtilis (strain 168)), P80244; purified B. subtilis ClpP, FRET peptide cleavage, 20 min; 340,000 compounds, 1.9% hits; Potency, µM (series often up to 57.5 µM), for the others: at the highest dose activity change, negative = active; active = well fitted falling curve with a large enough effect; inconclusive = small, poorly fitted or top-dose-only effect; inactive = no such curve, though single readings can be large or run the other way; further: potency means the concentration at half of the fitted maximal effect; the source files actives as falling curves though it sought activators and does not explain the sign; nearly all actives have a fitted effect of over 65% in size; many hits overshoot -100%
# Target sequence (P80244 whole entry, looked up): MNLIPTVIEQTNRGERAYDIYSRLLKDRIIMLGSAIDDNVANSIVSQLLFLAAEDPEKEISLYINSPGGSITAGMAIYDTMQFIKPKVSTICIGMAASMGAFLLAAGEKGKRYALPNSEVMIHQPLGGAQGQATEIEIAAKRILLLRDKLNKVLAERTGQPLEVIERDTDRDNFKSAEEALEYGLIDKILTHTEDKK
#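 ClpP 10 microg/mL final, pH 8 Tris/KCl buffer with BSA, glycerol, Tween-20; compound pinned in; FRET-FV substrate; RT 20 min; Ex320/Em430; ΔFRET vs ADEP 5.8 microM, DMSO, no enzyme.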
# TRPML1 blocker – human mucolipin-1 channel inhibition | TRPML1-inducible cells, Ca2+ dye fluorescence, FDSS; hits give low values; inhibition of EC80 agonist-evoked calcium signal | activity change, negative = inhibition, % (test concentration not listed) | Q9GZU1 | AID 624415 | 390,000 compounds, 0.02% hits; in the data active means activity change below about -50%; inconclusive means about -30% to -50%; inactive means above about -30%;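 further: stimulus is agonist 54-4 at its EC80 concentration; on the % scale 0 is the no-effect control and ±100 the full control effect; compound concentration not given in the record; the text of the record puts the active cut at -80%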
#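 TRPML1-DL cells, Tet-induced overnight (~16 h, 37 °C) at 1,500 cells/well, were loaded with Ca8 no-wash dye plus quencher for 45-90 min at room temperature. Compounds were pinned during FDSS kinetic reading; agonist 54-4 at EC80 (4 uM final) then added.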
# gsp antag – antagonists of gsp mutant (McCune-Albright syndrome). gsp-mutant cells, cAMP HTRF, 30 min; control for the full effect not named in the record. Potency, µM (series often up to 76.9 µM), for inactives: top-dose activity change, negative = inhibition, actives largely listed as inhibitors. 340,000 compounds, 0.4% hits; active = falling curve of any shape with a large fitted effect; inconclusive = falling curve, mostly with a smaller effect; inactive = flat or rising curve; cell line not stated here;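 further: intracellular cAMP measured with PDE inhibitor Ro 20-1724 present during compound exposure; potency means the concentration at half of the fitted maximal effect; on the % scale 0 is the no-effect control and ±100 the full control effect; nearly all actives have a fitted effect of over 65% in size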
#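 HTRF cAMP read-out (cAMP-d2 plus anti-cAMP antibody-K in lysis buffer, 30 min RT). Before lysis, cells are exposed to compounds with […] for 30 min at 37C in DPBS containing Ca/Mg, BSA and Tween 20.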
# * = called active by the depositor; ? = inconclusive; . = not tested or not shown; & = joins results of further samples; [ ] = another dose, or the depositor's remark. Compounds were not picked by outcome; about 2.1% have a hit in one of these screens.
mol	Menin MLL FP FL	TRPML1 ag	gsp agonist	ClpP mod	TRPML1 blocker	gsp antag
O=C(/C=C/c1ccc(S(=O)(=O)N2CCOCC2)cc1)N(CCO)Cc1ccccc1	-6.3	-0.5	-15.1%	0.1%	13.3	-4.9%
O=C(Nc1cccc(NC(=O)c2nccc3ccccc23)c1)c1ccco1	4.7	-0.4	-74.0%[inhibitor]	-2.2%	1.0	-9.9%
CCN1CCCC1CNC(=O)CCNC(=O)c1cc(OC)c(OC)c(OC)c1 (centres undefined)	-1.1	1.0	20.5%	-3.0%	21.8	10.9%
Nn1c(Nc2ccccc2)nc2sc3c(c2c1=O)CCC3	1.2	-0.7	-15.8%	-13.0%	-7.9	?
Cc1cc(=O)n(CCCO)c(O)c1C#N	?	-0.7	11.4%	-26.6%	20.9	2.1%
CN(C)c1nnnn1-c1ccc(Oc2ccccc2)cc1	-2.3	-0.2	20.6%[15.4 µM]	.	5.7	3.1%
CC1(C)CC(N2CN(C3CCCCC3)CC2=O)CC(C)(C)N1	6.0	-1.0	-4.0%	-1.9%	-10.0	2.5%
CN1C(=O)C(CC(=O)NCCc2ccccc2)N(NC(=O)c2ccc(Cl)cc2)C1=S (centres undefined)	2.0	1.8	-26.7%	1.6%	-5.0	-3.2%
CN(CC(=O)NC(=O)NC(C)(C)C)CC(=O)Nc1ccccc1Cl	-1.8	1.2	-37.7%[inhibitor]	-3.1%	9.6	9.2%
COc1ccc2cc(OCC(=O)NNC(=O)Nc3ccc(OC)c(OC)c3)ccc2c1	.	-0.3	-2.3%[15.4 µM]	-1.4%	3.6	-3.9%
Cc1ccc(-c2cc(C(=O)Nc3cnn(C45CC6CC(CC(C6)C4)C5)c3)no2)cc1	5.1	-0.2	6.6%	-2.2%	17.2	11.9%
Cc1nc(C)c(C(=O)Nc2ccccc2-c2ccccc2)o1	1.3	-0.6	-2.6%	-1.1%	-8.3	4.6%
CC(C)(C)c1cc2cccnc2n1Cc1cccc(Cl)c1	0.4	0.2	30.1%	-7.0%	43.9	-0.2%
COc1cc(C(=O)NCC(c2cccs2)N2CCOCC2)c([N+](=O)[O-])cc1OC (centres undefined)	.	0.7	-2.5%[15.4 µM]	.	19.5	3.4%
Cc1ccc(NC(Cc2cc(C)no2)c2ccccc2)cc1 (centres undefined)	1.9	5.6	0.2%	-0.9%	6.9	-7.2%
CCCc1cc(=O)oc2cc(OCC(=O)NCCc3ccc(S(N)(=O)=O)cc3)ccc12	.	-0.5	?	3.7%	-6.0	6.1%
COc1ccc(/C=C/C(=O)N2CCCC2)cc1OC	0.9	-0.6	15.0%	?	-7.7	-20.9%
CCOC(=O)c1c(NC(=O)CN2CCCc3ccccc32)sc(C)c1CC	4.4	0.9	-27.1%	-5.2%	5.3	-21.9%
CC1(C)Cc2c(C#N)c(N)n(-c3ccccc3)c(=O)c2CO1	2.8	0.4	1.5%	-6.5%	21.1	11.7%
Cc1sc(NC(=S)NC(=O)c2ccc(C(C)(C)C)cc2)c(C#N)c1C	8.6	3.0	?	0.9%	80.3	-20.1%
COc1c(Cl)cc(Cl)cc1CNCCNCCO	1.0	0.9	-0.8%	0.0%	4.7	-5.2%
C[C@H](CO)N1C[C@H](C)[C@@H](CN(C)C(=O)NC2CCCCC2)Oc2c(NC(=O)Nc3ccccc3)cccc2C1=O	.	2.2	.	?	-18.1	-15.4%
CC(C)(O)[C@H]1Cc2cc3ccc(=O)oc3cc2O1	-0.3	-0.3	38.1%	3.7%	0.6	13.2%
C[C@H]1CN=C(Nc2ccccc2)N1CCc1ccc(F)cc1	.	6.8	25.5%	-1.9%	-6.5	5.5%
COc1ccc(NC(=O)C2CCC(C)(C(=O)O)C2(C)C)cc1 (centres undefined)	-0.2	-0.7	9.6%	-25.7%	-1.2	0.8%
CCC(C)c1nc2c(c(N3CCC3=O)c1-c1ccccc1)CCCC2 (centres undefined)	.	1.0	5.0%	1.8%	-3.7	-3.3%
CN(C)S(=O)(=O)c1ccc(C(=O)N2CCN=C2SCc2ccccc2)cc1	-0.7	-0.3	-12.1%	-1.1%	-0.3	-17.4%
CC(C)N(CCNS(=O)(=O)c1ccc(Cl)cc1)C(C)C	-0.8	-0.3	15.8%	0.9%	-0.3	15.5%
CC1CCN(c2nc3c(c(=O)[nH]c(=O)n3C)n2CCSc2ncccn2)CC1	.	-0.1	-1.1%	-2.4%	-4.5	3.1%
CCC(C)NC(=O)Cn1c(=O)n(-c2ccc(Cl)cc2)c(=O)c2c3c(sc21)CCCC3 (centres undefined)	.	-0.2	.	2.1%	-9.0	.

# No new results follow: entries from further up.
mol	Menin MLL FP FL	TRPML1 ag	gsp agonist	ClpP mod	TRPML1 blocker	gsp antag
O=C(/C=C/c1ccc(S(=O)(=O)N2CCOCC2)cc1)N(CCO)Cc1ccccc1	-6.3	-0.5	-15.1%	0.1%	13.3	-4.9%
O=C(Nc1cccc(NC(=O)c2nccc3ccccc23)c1)c1ccco1	4.7	-0.4	-74.0%[inhibitor]	-2.2%	1.0	-9.9%
CCN1CCCC1CNC(=O)CCNC(=O)c1cc(OC)c(OC)c(OC)c1 (centres undefined)	-1.1	1.0	20.5%	-3.0%	21.8	10.9%

# In the list so far, these have two or more sulfur atoms.
mol	Menin MLL FP FL	TRPML1 ag	gsp agonist	ClpP mod	TRPML1 blocker	gsp antag
Cc1sc(NC(=S)NC(=O)c2ccc(C(C)(C)C)cc2)c(C#N)c1C	8.6	3.0	?	0.9%	80.3	-20.1%
CN(C)S(=O)(=O)c1ccc(C(=O)N2CCN=C2SCc2ccccc2)cc1	-0.7	-0.3	-12.1%	-1.1%	-0.3	-17.4%

# The listing picks up; the four compounds before the break are reprinted first.
mol	Menin MLL FP FL	TRPML1 ag	gsp agonist	ClpP mod	TRPML1 blocker	gsp antag
CN(C)S(=O)(=O)c1ccc(C(=O)N2CCN=C2SCc2ccccc2)cc1	-0.7	-0.3	-12.1%	-1.1%	-0.3	-17.4%
CC(C)N(CCNS(=O)(=O)c1ccc(Cl)cc1)C(C)C	-0.8	-0.3	15.8%	0.9%	-0.3	15.5%
CC1CCN(c2nc3c(c(=O)[nH]c(=O)n3C)n2CCSc2ncccn2)CC1	.	-0.1	-1.1%	-2.4%	-4.5	3.1%
CCC(C)NC(=O)Cn1c(=O)n(-c2ccc(Cl)cc2)c(=O)c2c3c(sc21)CCCC3 (centres undefined)	.	-0.2	.	2.1%	-9.0	.
O=C(Nc1ccncc1)c1ccc2ccccc2c1	-0.8	0.6	-3.6%[15.4 µM]	22.4µM*	18.6	-8.9%
COc1cc(/C=C/C(=O)O)ccc1OS(=O)(=O)c1cc(Br)ccc1C	.	-0.6	-3.1%	0.0%	6.9	-13.9%
COc1ccc(C(=O)NC(C)c2nc3ccccc3n2C)cc1OC (centres undefined)	5.3	1.4	8.8%	-1.8%	1.7	21.9%
COC(=O)C1=C(C)N(CCc2ccc(OC)c(OC)c2)C(=O)C1	1.7	0.0	25.0%	0.6%	5.7	2.3%
COc1cccc(CNC(=O)CN2C(=O)CSc3c2c(C)nn3-c2ccccc2)c1	.	-1.0	.	-0.5%	14.0	.
COc1ccc(CCNC(=O)c2cc3c(=O)n4cccc(C)c4nc3n2C)cc1	.	-0.7	.	-22.4%	-15.5	.
O=C(NCc1ccccc1Cl)c1ccc[nH]1	-2.9	-1.5	10.6%[15.4 µM]	0.6%	-4.1	12.1%
CCCNS(=O)(=O)c1ccc(Oc2ncc(C(F)(F)F)cc2Cl)cc1	1.8	25.5	-11.1%	3.0%	25.9	23.7%
Cc1ccc(C(=O)NCCCN2CCOCC2)o1	3.2	-0.4	?	-0.4%	16.5	7.2%
CCOC(=O)c1c(C)nn(-c2ncccc2NC(=O)NC(C)C)c1C	-2.9	-0.6	1.7%[15.4 µM]	1.0%	3.3	6.1%
C=CCSc1nc2c(N)ncnc2n1C1OC(CO)C(O)C1O (centres undefined)	.	-0.3	14.0%	0.3%	-8.9	.
O=C(C(Cl)Cl)N1CCN(Cc2ccccc2)CC1	4.5	2.1	-2.4%	0.8%	22.9	10.7%
Cc1ccc(NS(=O)(=O)c2cccc(C(=O)O)c2)cc1S(=O)(=O)N1CCOCC1	-3.4	0.0	-1.3%	0.5%	12.0	4.3%
COc1ccc(CCNC(=O)Cn2c(=O)cc(C(F)(F)F)c3c(C)nn(C)c32)cc1OC	.	1.4	.	-9.7%	-16.4	.
CCOC(=O)C(CCCCCOc1ccccc1[N+](=O)[O-])C(=O)OCC	4.2	1.6	0.4%	-5.3%	8.4	-13.6%
Cc1ccc2nc(-c3ccccc3)cc(C(=O)NCCCn3ccnc3)c2c1	-1.5	-0.1	21.2%	15.8µM*	-12.9	0.6%
O=C(OCc1ccco1)c1ccc2c(c1)N(Cc1ccc([N+](=O)[O-])cc1)C(=O)c1ccccc1S2	.	3.7	.	2.1%	37.7	.
NS(=O)(=O)c1ccc(NC(=S)N2CCN(c3ccc(Cl)c(Cl)c3)CC2)cc1	4.8	3.1	-27.6%	-2.6%	12.1	-19.4%
CC(C)Cc1cc(C(=O)Nc2cc(Br)ccc2O)no1	0.6	-0.2	-3.1%	-5.8%	-3.0	-14.6%
Cc1cc(C(=O)OCc2nnc(-c3ccccc3)o2)c(C)n1-c1ccccc1	2.0	0.3	?	0.3%	-17.5	-16.4%
O=C(CCn1c(=O)oc2ccccc21)NCCN1CCc2ccccc2C1	2.0	0.2	-21.8%	-4.4%	-7.3	-0.4%
COc1cccc(CC(=O)Nc2ccc(-c3csc(C)n3)cc2)c1	1.2	0.6	-0.1%[15.4 µM]	.	7.0	-30.3%
COc1cccc(N2CCN(C(=O)CCc3nnc4ccc(N5CCCC5)nn34)CC2)c1	-1.1	-1.0	1.6%	-0.6%	18.4	-25.7%
COc1ccc(NC(=O)C2CCCN2C(=O)NC2CCCCC2)cc1OC (centres undefined)	3.4	0.0	-13.8%	0.4%	7.1	15.3%
O=S1(=O)CCO[C@H]2Cc3ccccc3[C@H]2N1Cc1cccc(F)c1	7.4	1.1&-1.0	?	-4.0%&-0.2%	15.4	10.8%
Cc1csc(NC(=O)Cc2ccc(Br)cc2)n1	0.1	-0.3	9.9%[15.4 µM]	-0.7%	27.2	1.0%
